AmpC nodet inh – Promiscuous and Specific Inhibitors of AmpC Beta-Lactamase (assay without detergent); P00811; 71,000 compounds, 1.8% hits; AID 585, 2007; AmpC nitrocefin hydrolysis, absorbance 480 nm, no detergent; potencies from a single point are estimates; Potency, µM (titrated, usually from 28.7 µM), without a hit: at the top dose activity change, negative = inhibition; active = falling curve, for most hits resting on a single point; inconclusive = weak or doubtful change; inactive = flat or rising curve; also: % of control where 0% means no effect; about half of the hits show no inhibition at the top dose; a quarter of the inactives give rising signals
Target sequence (P00811 whole entry, looked up): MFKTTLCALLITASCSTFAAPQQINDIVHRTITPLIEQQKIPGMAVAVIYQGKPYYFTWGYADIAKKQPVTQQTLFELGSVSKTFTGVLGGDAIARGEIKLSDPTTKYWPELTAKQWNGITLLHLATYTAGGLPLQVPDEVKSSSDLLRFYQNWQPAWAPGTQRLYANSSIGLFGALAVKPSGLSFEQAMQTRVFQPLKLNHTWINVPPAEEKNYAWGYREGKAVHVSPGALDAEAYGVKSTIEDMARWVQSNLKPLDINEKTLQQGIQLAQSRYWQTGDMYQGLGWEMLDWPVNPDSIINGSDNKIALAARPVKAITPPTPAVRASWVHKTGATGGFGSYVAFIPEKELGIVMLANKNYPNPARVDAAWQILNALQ
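Enzyme, pH 7.0 phosphate. Compound titrations were pre-incubated with AmpC for 15 min at room temperature before nitrocefin (stock 800 uM) addition; product formation was recorded at 480 nm every 20 s for 4 min.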
* hit, by the source's call; [ ] = another dose, or the depositor's remark. Potency is read from the fitted curve at half-maximal effect. A portion of the library; rates above refer to the full screens.

SMILES | AmpC nodet inh
Cc1ccc(C(C(=O)NC2CCCCC2)N(Cc2cccnc2)C(=O)C2COc3ccccc3O2)o1 (centres undefined) | 108%
CCOC(=O)CN1CC23C=CC(O2)C(C(=O)Nc2ccc(OCC)cc2)C3C1=O (centres undefined) | -1%
O=C(Nc1ccc(Cl)cc1F)C1CCN(S(=O)(=O)c2cccnc2)CC1 | 21%
Cc1cnc(CNc2cc(-c3cccc(C#N)c3)ncn2)cn1 | 1%
N#CC1=C(SCC(=O)Nc2cccc3cccnc23)NC(=O)C(C#N)C12CCCCC2 (centres undefined) | -19%
Cc1ccc2c(CC(=O)Nc3sccc3C(N)=O)coc2c1 | 13µM*[single pt active]
CCCNC(=O)c1ccc(CNc2c(N3CCC(C(=O)OCC)CC3)c(=O)c2=O)cc1 | 20%
O=C1c2ccccc2C(Nc2ccc(S(=O)(=O)N3CCCCCC3)cc2)N1Cc1ccco1 (centres undefined) | -8%
Cc1cc(NC(=O)c2ccccc2Oc2ccccc2)no1 | -1%
CNc1oc(C)nc1S(=O)(=O)c1ccc(C)cc1 | -10%
CN(c1cc(=O)n2ccccc2n1)C1CCCCC1 | 31%
COCCN1Cc2cccc(C(=O)NCc3ccc4c(c3)OCO4)c2C1=O | 27%
COc1ccccc1CN1CCC2(CC1)CCN(S(=O)(=O)c1ccccc1)CC2 | 17%
CC1CC2(O)c3no[n+]([O-])c3CCC2N1O (centres undefined) | 2%
Cn1cccc1-c1nc2ccc(NC(=O)c3ccco3)cc2[nH]1 | -23%
COCCNC(=O)[C@H]1C[C@@H]1[C@H](NP(=O)(c1ccccc1)c1ccccc1)c1ccccc1 | 116%
Cc1nc(NCc2ccco2)nc2c1C(=O)CC(C)C2 (centres undefined) | 6%
CCCn1c(C)nc2c(c1=O)c1nc3ccccc3nc1n2-c1ccc2c(c1)OCCO2 | 24%
O=S(c1ccccc1)c1ccc2nnnn2n1 (centres undefined) | -1%
COc1ccc(NC(=O)CCCCn2c(=O)[nH]c3ccccc3c2=O)cc1 | -1%
N#Cc1cn(CC(=O)O)c2ccccc12 | 2%
O=C(O)COc1ccccc1Cc1ccccc1 | 0%
Cc1ccc2nc(-c3cccc(-c4nc5ccc(C)cc5o4)n3)oc2c1 | 4%
Cc1ccc(CCNS(=O)(=O)c2cnc[nH]2)cc1 | 7%
O=C(O)CCNS(=O)(=O)c1ccc(Oc2ccccc2)cc1 | -15%
CC1CCc2nc(NC(=O)c3cc(C(C)(C)C)nn3C)sc2C1 (centres undefined) | 21%
CC1CC(C)CN(CCCNC(=O)Cc2c(C(=O)O)[nH]c3ccccc23)C1 (centres undefined) | 2%
CCCCNC(=O)NS(=O)(=O)c1ccc(NS(=O)(=O)c2ccccc2)cc1 | -8%
COc1cc(S(=O)(=O)N2CCOCC2)ccc1NC(=O)CSc1nnc(N)s1 | -7%
CCc1c(O)nc(SCC(=O)Nc2ccccc2C)[nH]c1=O | -11%
CC(C)(C)n1nnnc1C(c1cccc(C(F)(F)F)c1)N1CCOCC1 (centres undefined) | 38%
COc1ccc(C)cc1S(=O)(=O)N1CCC(C(=O)N2CCOCC2)CC1 | 6%
Cc1onc(-c2c(F)cccc2Cl)c1C(=O)NCC1COc2ccccc2O1 (centres undefined) | 25%
COc1ccc(-c2nnc(COc3ccc4ccccc4c3)o2)cc1OC | 121%
COc1ccccc1-c1nnc(NC(=O)C(C)SC2=NCCS2)s1 (centres undefined) | 76%
Cc1cc(C)nc(N2CCCC(C(=O)NCCC3=CCCCC3)C2)n1 (centres undefined) | 18%

Twelve compounds from above, sorted by SMILES length, highest first.
SMILES | AmpC nodet inh
CCCn1c(C)nc2c(c1=O)c1nc3ccccc3nc1n2-c1ccc2c(c1)OCCO2 | 24%
CC1CC(C)CN(CCCNC(=O)Cc2c(C(=O)O)[nH]c3ccccc23)C1 (centres undefined) | 2%
COc1cc(S(=O)(=O)N2CCOCC2)ccc1NC(=O)CSc1nnc(N)s1 | -7%
COc1ccc(C)cc1S(=O)(=O)N1CCC(C(=O)N2CCOCC2)CC1 | 6%
CC(C)(C)n1nnnc1C(c1cccc(C(F)(F)F)c1)N1CCOCC1 (centres undefined) | 38%
Cc1cc(C)nc(N2CCCC(C(=O)NCCC3=CCCCC3)C2)n1 (centres undefined) | 18%
CC1CCc2nc(NC(=O)c3cc(C(C)(C)C)nn3C)sc2C1 (centres undefined) | 21%
COc1ccccc1-c1nnc(NC(=O)C(C)SC2=NCCS2)s1 (centres undefined) | 76%
CCc1c(O)nc(SCC(=O)Nc2ccccc2C)[nH]c1=O | -11%
Cc1ccc(CCNS(=O)(=O)c2cnc[nH]2)cc1 | 7%
O=S(c1ccccc1)c1ccc2nnnn2n1 (centres undefined) | -1%
N#Cc1cn(CC(=O)O)c2ccccc12 | 2%

The list continues.
SMILES | AmpC nodet inh
O=c1[nH]c2cc3c(cc2cc1CN(CCc1ccccc1)Cc1nnnn1C1CCCC1)OCCO3 | 30%
C#CCSc1n[nH]c(-c2ccco2)n1 | -5%[5.75 µM]
Cc1ccsc1C1C(C(=O)O)c2ccccc2C(=O)N1C (centres undefined) | 3%
O=C1CCCC2=C1C(c1ccco1)Nc1ccc3ccccc3c12 (centres undefined) | 20%
COc1cccc(-c2nc(CS(=O)(=O)CC(=O)NCc3ccccc3)c(C)o2)c1 | 55%
CCC1=C(C)CN(C(=O)NCCc2ccc(S(=O)(=O)NC(=O)NC3CCC(C)CC3)cc2)C1=O (centres undefined) | -8%[12.8 µM]
CCc1c(C(=O)Nc2nnc(C3CC3)s2)csc1C | -6%
COc1ccc(-n2c(SCC(=O)Nc3nccs3)nc3sc4c(c3c2=O)CCN(C)C4)cc1 | 10%
CCOc1ccc(C2CC(=O)NC3=C2C(=O)CCC3)cc1 (centres undefined) | -5%
Cc1cc(C)c2cc(C(c3nnnn3CC3CCCO3)N3CCN4CCCC4C3)c(=O)[nH]c2c1 (centres undefined) | 113%
CC(C)[C@@H](CC(=O)N[C@@H]1CCCC[C@H]1C(=O)N[C@H](CC(=O)N[C@@H](CCC(=O)O)CC(=O)O)Cc1c[nH]c2ccccc12)NC(=O)C[C@H](Cc1c[nH]c2ccccc12)NC(=O)[C@@H]1CNCC[C@H]1N | 122%
CCCCCCn1c2c(c(=N)c3c1CCC3)CCC2 | -6%

A second format for some results above:
mol: COc1cccc(-c2nc(CS(=O)(=O)CC(=O)NCc3ccccc3)c(C)o2)c1
  AmpC nodet inh = 55%

mol: CCC1=C(C)CN(C(=O)NCCc2ccc(S(=O)(=O)NC(=O)NC3CCC(C)CC3)cc2)C1=O (centres undefined)
  AmpC nodet inh = -8%[12.8 µM]

(more compounds)
SMILES | AmpC nodet inh
Cc1ccccc1Nc1nc(N)nc(COC(=O)C(NC(=O)c2ccco2)C(C)C)n1 (centres undefined) | 14%
CCCN(CCO)Cc1cccc(Oc2ccccc2)c1 | 8%
O=C(CCC(=O)N(CC(=O)NC1CCCC1)Cc1ccc2c(c1)OCO2)Nc1ccccn1 | 25%
CCN(CC)CCCN=C(C)c1c(O)n(C2CCCCC2)c(=O)[nH]c1=O | 16%
CCOC(=O)c1ccc(NS(=O)(=O)c2cnc[nH]2)cc1 | 2%
CC(C(=O)O)N1C(=O)CSC1=S (centres undefined) | -15%
COc1ccc(N2CCCn3c2nc2c3c(=O)n(CCc3ccccc3)c(=O)n2C)cc1 | 96%
CCC(=O)NCCSc1c[nH]c2ccccc12 | -2%
CC(C)C(NC(=O)OCc1ccccc1)C(=O)NCC(=O)OC(C)(C)C (centres undefined) | 19%
COc1ccc(N(CC(=O)Nc2ccccc2SC)S(C)(=O)=O)cc1OC | 43%
CCOc1cc2[nH]c(=O)n(CC3CCC(C(=O)NCCC(C)C)CC3)c(=O)c2cc1OCC (centres undefined) | 53%
COC(=O)c1ccccc1NC(=O)c1ccccc1SC | 3%
OC1(c2ccc(F)cc2)CC2CCC(C1)N2Cc1nnnn1C1CCCCC1 (centres undefined) | 141%
COc1ccc(NC(=O)C2CCCN2S(=O)(=O)c2ccc(F)cc2)cc1 (centres undefined) | 12%
CC(C)C[C@@H](CC(=O)N[C@@H](CCC(=O)O)CC(=O)O)NC(=O)[C@@H]1CCCC[C@H]1NC(=O)C[C@H](CCCN)NC(=O)C[C@H](Cc1c[nH]c2ccccc12)NC(=O)[C@@H]1CNCC[C@H]1N | 84%
CCOC(=O)N1CCC(NC(=O)Cn2cc3c(n2)CCC(C)C3)CC1 (centres undefined) | 34%
COc1ccc(-c2nc3cnc(Nc4cccc(OC)c4)nc3n(CCC#N)c2=O)cc1 | 16%
CC(C)OC(=O)c1nnn(-c2nonc2N)c1CN1CCc2ccccc2C1 | 36%
CCOC(=O)C1C(c2cccs2)NC(=O)NC1(O)C(F)(F)F (centres undefined) | 1%
O=C(CN1C(=O)C2C3C=CC(C3)C2C1=O)Nc1cccc2c1CCCC2 (centres undefined) | 14%
NC(=O)SC/C(=N\S(=O)(=O)c1ccccc1)Nc1ccccc1 | -18%
COc1ccccc1NC(=O)CSc1nnc(Cc2cccn2C)n1CCc1ccccc1 | 118%
CCCn1nc(NC(=O)c2ccco2)c2cc3ccc(C)cc3nc21 | 36%
O=C(c1ccccc1)c1nc[nH]c1C(=O)Nc1ccccc1 | -17%
COc1ccc(OCC(=O)Nc2ccc3c(c2)nc2n3CCSC2)cc1 | 0%
CCCOC(=O)C1C2C=C[C@]3(CN(CCc4ccccc4)C(=O)[C@H]13)O2 (some centres undefined) | 10%
COc1ccccc1N1CCN(C(CNC(=O)c2ccc3c(c2)OCO3)c2cccnc2)CC1 (centres undefined) | 44%
O=C(Nc1ccon1)c1sc2ccccc2c1Cl | -10%
Cc1cccc2cc(COC(=O)C(C)(C)C)c(=O)[nH]c12 | 28%
CCc1nnc(NC(=O)C2CCN(S(=O)(=O)Cc3ccccc3)CC2)s1 | 25%
COC(=O)c1ccc(N2C(=O)CC(N(C)CCc3ccc(OC)c(OC)c3)C2=O)cc1 (centres undefined) | 46%
O=C(Nc1ccccc1-c1ccccc1)C1CCCN(c2ncccn2)C1 (centres undefined) | 39%
COc1cccc(/C=N/n2c(SC)nnc2-c2ccccc2)c1O | 57%
O=C1CCC(=O)N1CC(=O)N1c2ccccc2Sc2ccccc21 | 67%
Cc1ccc(CCNC(=O)C2CCCN(S(=O)(=O)c3c(C)noc3/C=C/N(C)C)C2)cc1 (centres undefined) | 74%
O=C(COc1ccc(Cl)cc1Cl)NCCCn1ccnc1 | -1%
CCCCN1C(=O)c2ccc(C(=O)NC3=NCCS3)cc2C1=O | 11%
c1ccc2[nH]c(-c3nc4ccccc4[nH]3)nc2c1 | -6%
Cc1ccc(C)c(N2CCN(S(=O)(=O)c3ccc4[nH]c(=O)c(=O)[nH]c4c3)CC2)c1 | -11%
CCN(CC)S(=O)(=O)c1ccc(NC(=O)COc2c(OC)cccc2OC)cc1 | 43%
COc1ccc2c(c1)CCc1c(C(=O)Nc3ccn(Cc4ccc(C)cc4)n3)noc1-2 | -23%
CCOC(=O)N1CCN(C(=O)CCSCCc2ccncc2)CC1 | 15%
COc1ccc(-c2csc(NC(=O)Cn3nc(C)cc3C)n2)cc1 | 12%
O=c1c(-c2cccc(Cl)c2)nc2cncnc2n1Cc1ccccc1 | 11%
CCOC(=O)CSc1nc2ccc(N3CCOCC3)cc2c(=O)n1Cc1ccc2c(c1)OCO2 | 80%
Cc1cc(=O)[nH]c2cc(Cl)ccc12 | -11%
CCCn1nnc(NC(=O)c2ccc(Cl)cc2Cl)n1 | 4%
O=C(CCc1ccc(S(=O)(=O)N2CCOCC2)cc1)OCc1nc2ccccc2s1 | 61%
Cc1ccc(CN(Cc2cccnc2)C(=O)CN2C(=O)COc3ccccc32)o1 | 40%
CCOC(=O)C1CCCN(CCC(=O)Nc2ccc(F)c(F)c2)C1 (centres undefined) | -10%
CCCc1c(O)nc(SC2CC(=O)N(c3cc(OC)ccc3OC)C2=O)[nH]c1=O (centres undefined) | -3%
C(#CCN1CCOCC1)COCC#Cc1ccccc1 | 30%
O=C(NC1CCCCC1)N(Cc1cc2cc3c(cc2[nH]c1=O)OCCO3)CC1CCCO1 (centres undefined) | 54%
ClC1=C(Cl)C2(Cl)C3C(Cl)C=CC3C1(Cl)C2(Cl)Cl (centres undefined) | -24%
COc1ccccc1OCCSc1ncnc2nc[nH]c12 | -5%
COc1cc(C)c(CN2CCCCC2CO)cc1C (centres undefined) | -20%
CCOC(=O)C1(CC)NC(c2cccc(F)c2)C2C(=O)N(CC)C(=O)C21 (centres undefined) | 17%
COc1cccc2c1C(=O)c1c(O)c3c(c(O)c1C2=O)C[C@](O)(C(=O)CO)C[C@@H]3O[C@H]1C[C@H](N)[C@@H](O)[C@H](C)O1 | 2%[5.75 µM]
COc1ccc(NC(=O)c2ccc(CN3CCN(c4ccccc4)CC3)cc2)cc1 | -7%
COc1cccc2cc(C(=O)N3CCN(c4ncccn4)CC3)c(=O)oc12 | 16%
(more compounds)
SMILES | AmpC nodet inh
CCOC(=O)c1sc2nc(SCC(=O)NCc3ccco3)n(Cc3ccccc3)c(=O)c2c1C | 2%
CCCC(=O)Nc1ccc(NC(=O)C23CC4CC(CC(C4)C2)C3)cn1 | 7%
O=C(CC1SC(=O)N(c2ccccc2)C1=O)Nc1ccccc1 (centres undefined) | 0%
Cc1c(C(=O)NCc2cccnc2)oc2ccc(S(=O)(=O)N3CC(C)CC(C)C3)cc12 (centres undefined) | 31%
O=C1CC(C(=O)Nc2ccc(Br)cc2)C2(CCCC2)O1 (centres undefined) | -6%

Screening data as filed in PubChem BioAssay.
